Screening results as filed in PubChem BioAssay.
TRPML1 inh = qHTS for Inhibitors of the Human Mucolipin Transient Receptor Potential 1 (TRPML1); Mucolipin-1 (Homo sapiens), Q9GZU1; TRPML1-inducible cells, Ca2+ dye fluorescence, FDSS; active compounds read low; inhibition of EC80 agonist-evoked calcium signal; activity change, negative = inhibition, % (test concentration not listed); hit rate 0.02% among 390,000; AID 624415, 2012; in the data active means activity change below about -50%; inconclusive means about -30% to -50%; inactive means above about -30%;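 further: stimulus is agonist 54-4 at its EC80 concentration; on the % scale 0 is the no-effect control and ±100 the full control effect; compound concentration not given in the record; the text of the record puts the active cut at -80%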
Target sequence (Q9GZU1 whole entry, looked up): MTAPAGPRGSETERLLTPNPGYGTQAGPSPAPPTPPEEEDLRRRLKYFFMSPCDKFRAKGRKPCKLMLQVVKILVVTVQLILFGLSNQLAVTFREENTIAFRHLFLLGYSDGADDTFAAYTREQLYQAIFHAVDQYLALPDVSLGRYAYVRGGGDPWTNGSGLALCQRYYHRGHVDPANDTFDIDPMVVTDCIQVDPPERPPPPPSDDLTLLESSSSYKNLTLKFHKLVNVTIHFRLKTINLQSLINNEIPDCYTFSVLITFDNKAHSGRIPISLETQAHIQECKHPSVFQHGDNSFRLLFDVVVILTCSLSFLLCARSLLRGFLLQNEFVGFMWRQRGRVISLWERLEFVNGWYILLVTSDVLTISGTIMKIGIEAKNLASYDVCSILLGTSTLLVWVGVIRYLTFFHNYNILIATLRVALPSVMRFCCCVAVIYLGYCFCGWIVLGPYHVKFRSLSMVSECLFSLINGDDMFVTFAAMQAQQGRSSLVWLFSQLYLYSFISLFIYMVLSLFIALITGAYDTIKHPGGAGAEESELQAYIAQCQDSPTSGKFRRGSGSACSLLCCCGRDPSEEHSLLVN
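Calcium fluorescence in TRPML1-DL cells induced overnight with Tet: a 110 s read after compound pin addition, then a 110 s antagonist read after challenge with 54-4 at 4 uM final (EC80).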
D2 ag = Beta-Arrestin HTS for Positive Allosteric Modulators of the Human D2 Dopamine Receptor: Agonists. D(2) dopamine receptor (Homo sapiens), P14416. DiscoveRx PathHunter D2 beta-arrestin, luminescence, 90 min; 100% = 57 uM dopamine signal. activation, % (test concentration not listed). hit rate 0.084% among 360,000; in the data active = activation above about 40%; inconclusive = about 15% to 40%; inactive = below about 15%; further: compound concentration not given in the record; the text of the record calls up to 30% inactive
Target sequence (P14416 whole entry, looked up): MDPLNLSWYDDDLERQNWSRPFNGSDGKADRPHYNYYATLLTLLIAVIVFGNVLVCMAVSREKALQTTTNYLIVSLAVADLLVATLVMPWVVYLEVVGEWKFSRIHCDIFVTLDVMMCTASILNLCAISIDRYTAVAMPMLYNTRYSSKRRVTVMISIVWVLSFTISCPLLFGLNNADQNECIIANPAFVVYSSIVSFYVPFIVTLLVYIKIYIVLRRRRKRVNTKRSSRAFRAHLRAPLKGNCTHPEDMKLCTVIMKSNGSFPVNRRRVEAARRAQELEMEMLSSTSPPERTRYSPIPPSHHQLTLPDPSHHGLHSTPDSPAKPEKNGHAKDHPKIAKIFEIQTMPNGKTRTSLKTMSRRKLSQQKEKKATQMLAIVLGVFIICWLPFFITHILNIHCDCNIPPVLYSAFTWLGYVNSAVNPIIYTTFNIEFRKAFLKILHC
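DiscoveRx PathHunter D2 beta-arrestin cells (2,100/well) attached overnight, then compound-stimulated 90 min at 37 C in HBSS/10 mM HEPES/0.1% Tween-20 buffer; beta-galactosidase complementation read by luminescence after 1 h at ambient temperature. Dopamine 57 uM final (EC100) as control.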
CtBP-E1A blk = qHTS Assay for Inhibitors of the CtBP/E1A Interaction. CtBP / adenovirus E1A interaction (AlphaScreen). AlphaScreen GST-E1A/His-CtBP binding, 1536-well; active compounds read low; control for the full effect not named in the record. activity change, % (no concentration beside the values). hit rate 0.49% among 340,000. AID 651724, 2012; in the data active means activity change below about -65%; inconclusive means about -30% to -65%; inactive means above about -30%; further: on the % scale 0 is the no-effect control and ±100 the full control effect
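GST-E1A and His-tagged CtBP (125 nM each as 5X stock) were preincubated with pin-transferred compound for 2 h at 37 °C in the dark, then glutathione donor and nickel acceptor beads were added for 1 h before AlphaScreen reading.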
Six1-Eya2 blk = qHTS Assay for Inhibitors of the Six1/Eya2 Interaction; Homeobox protein SIX1 (Homo sapiens) + Protein phosphatase EYA2 (Homo sapiens), …; AlphaScreen GST-Six1/His-Eya2 binding, biochemical; active compounds read low; control for the full effect not named in the record; activity change, % (test concentration not listed); hit rate 0.56% among 360,000; in the data active = activity change below about -65%; inconclusive = about -30% to -65%; inactive = above about -30%; further: on the % scale 0 is the no-effect control and ±100 the full control effect
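AlphaScreen with GST-Six1 and His-Eya2 (5X mix: 250 nM and 500 nM), glutathione donor and nickel acceptor beads; buffer 50 mM Tris pH 8.0, 300 mM NaCl, 1 mM TCEP; 1 h at 37 C in the dark.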
PINK1 expr mod = A Quantitative High throughput Screen to Identify Chemical Modulators of PINK1 Expression. PINK1 immunofluorescence, high-content cytometry, 24 h. Potency, µM (titrated, usually from 76.6 µM), for the others: at the top dose activation (PINK1 increase), usual class: activators. hit rate 0.2% among 410,000; active = well fitted activation curve with a large enough effect; inconclusive = small, poorly fitted or top-dose-only effect; inactive = flat fitted curve, though single readings scatter; cell line not stated here;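 further: potency means the concentration at half of the fitted maximal effect; % of control where 0% means no effect; nearly all actives have a fitted effect of over 65% in size; a mitochondrial uncoupler was the plate control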
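A stable cell line was treated with compounds at 5 concentrations for 24 hours, with CCCP as control. PINK1 levels and mitochondrial localization were measured by immunofluorescence with mitochondrial, cell and nuclear markers after fixation, read by laser-scanning cytometry.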
TRPML1 agonist = qHTS for Agonists of the Human Mucolipin Transient Receptor Potential 1 (TRPML1) | AID 624414, 2012 | TRPML1-expressing cells, Ca2+ dye fluorescence, FDSS; host cell line not named in the record; reference of the full effect not given here | Mucolipin-1 (Homo sapiens), Q9GZU1 | hit rate 0.12% among 410,000 | activation, % (no concentration beside the values); in the data active = activation above about 50%; inconclusive = about 30% to 50%; inactive = below about 30%; further: 0% is about no effect; the text of the record puts the active cut at 80%
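TRPML1-DL cells, Tet-induced overnight (~16 h, 37 degrees C), loaded 45-90 min at room temperature with Ca8 no-wash calcium dye plus quencher. FDSS fluorescence: 10 s baseline, compound pin-transfer, 110 s agonist read, then EC80 54-4 (4uM final) and 110 s antagonist read.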
Numbers without * were called inactive; ? = inconclusive; · = no result given; [ ] = dose if it differs, or a comment.

Second line of a record – D2 ag	Six1-Eya2 blk	CtBP-E1A blk	PINK1 expr mod	TRPML1 agonist	TRPML1 inh
Cc1ccccc1-c1nc(CS(=O)(=O)CC(=O)N2CCc3ccccc3C2)c(C)o1
 : -4.3	-8	-3	1.5%	1.9	8
CCN(Cc1nc(-c2ccccc2)no1)C(=O)c1ccc2c(c1)OCO2
 : -2.6	0	1	3.4%	0.9	-15
Cc1cccc(NC(=O)c2ccc(Cn3nc(N4CCN(c5ccccc5)CC4)ccc3=O)o2)c1C
 : ·	·	·	0.3%	2.2	21
CCC(=O)N1c2ccccc2CC1C(=O)NCc1ccccc1Cl (stereo unspecified)
 : ·	·	·	11%	1.3	3
Cn1c(=O)c2sccc2n2c(CCCC(=O)NCc3cccnc3)nnc12
 : -5.3	-4	·	1.7%	0.9	5
O=C(N/C(=C/c1cccnc1)C(=O)N1CCOCC1)c1ccccc1Br
 : -3.5	4	0	-1.5%	1.4	49
CN(C(=O)CSc1nc2ccc(NC(=O)COc3ccc(F)cc3)cc2s1)c1ccccc1
 : ·	·	·	3.4%	3.1	-1
Cc1cccc(NC(=O)c2ccc3snnc3c2)c1
 : ·	·	·	-4.6%	0.7	26
Cc1ccc(C(NC(=O)/C=C\c2ccc3c(c2)OCO3)C(=O)Nc2ccc3c(c2)OCO3)cc1 (stereo unspecified)
 : -2.3	-13	2	-1.4%	-1.3	82
CC(C)NC(=O)COc1ccc(S(=O)(=O)N2CCCC2)cc1
 : -1.7	-5	2	1.4%	-0.4	35
COC(=O)c1sc(NC(=O)c2cccc([N+](=O)[O-])c2)c(C(N)=O)c1C
 : -0.3	-6	-2	?	0.8	-1
O=C(NCc1ccc2c(c1)OCO2)C1CCCN(S(=O)(=O)c2cccs2)C1 (stereo unspecified)
 : -4.7	17	26	2.8%	-0.8	-6
CCc1cccc(NC(=O)C(Cc2ccccc2)n2cccc2)c1 (stereo unspecified)
 : ·	·	·	0.7%	3.9	16
CCC(C)NC(=O)c1ccc2c(c1)N(Cc1ccccc1F)C(=O)c1ccccc1S2=O (stereo unspecified)
 : ·	·	·	0.6%	-1.3	9
NS(=O)(=O)c1ccc(CCNC(=O)COC(=O)Cc2c(F)cccc2Cl)cc1
 : 1.7	-1	9	-0.5%	-0.4	-5
O=C(CCS(=O)(=O)c1ccccc1)Nc1ccc(N2CCOCC2)cc1
 : 2.8	-12	-22	2.1%	0.6	4
CC(=O)c1ccc(NCC(=O)N2CCN(S(=O)(=O)c3ccccc3)CC2)cc1
 : 5.5	-12	·	1.0%	-0.8	-14
CC(C)(C)c1ccc(CC(=O)N2CCC2(C)C(=O)Nc2cccc3cccnc23)cc1 (stereo unspecified)
 : -4.6	2	0	2.0%	-0.2	·
CCCOC(=O)c1ccc(-n2nnnc2SCC(=O)N2CCCCC2)cc1
 : -2.5	2	8	1.4%	2.0	22
CN(CCc1ccccc1)C(=O)c1ccc(NC(=O)Cc2ccc(NC(=O)C3CCN(S(=O)(=O)c4cccc([N+](=O)[O-])c4)CC3)cc2)cc1
 : 1.0	1	2	1.0%	-0.2	15
CC(C)(C)OC(=O)NCCCCCNC(=O)c1[nH]cnc1C(=O)N[C@@H](Cc1ccccc1)C(=O)OCc1ccccc1
 : 1.6	-14	-2	3.7%	1.6	26
Cc1cccc(C(=O)Nc2ccccc2-c2nnn(CC(=O)Nc3ccc4c(c3)OCCO4)n2)c1
 : -1.2	2	-3	?	0.0	6
CC(C(=O)Nc1ccccc1)N1CCN(c2ccccn2)CC1 (stereo unspecified)
 : 14	0	8	-2.5%	3.0	-21
CSc1nc(C)cc(SCC(=O)Nc2ccccc2)n1
 : 0.0	1	9	5.9%[38.3 µM]	-0.4	-3
CCSc1nnc(NC(=O)c2csc(C)c2)s1
 : -1.0	-1	8	?	0.1	16
O=C(CSc1nccn1-c1ccc(Cl)cc1)NCc1ccc2c(c1)OCO2
 : -5.6	-12	-3	-1.4%	0.3	22
CCOC(=O)c1ccc(S(=O)(=O)N2CCN(CCC#N)CC2)cc1
 : 0.9	3	5	0.2%	0.5	15
O=P(OC1CCCCC1)(OC1CCCCC1)C(O)c1cccnc1 (stereo unspecified)
 : -3.4	7	-7	0.0%	-0.4	-14
Cc1ccc(Cl)c2sc(NC(=O)CS(=O)(=O)c3ccc(Cl)cc3)nc12
 : ·	·	·	0.7%	0.4	-15
CCOc1ccccc1NC(=O)CSc1nc(=O)n(CCCN2CCOCC2)c2c1CCC2
 : -4.8	2	8	-2.9%	-0.4	4
NNC(=O)c1cc2c(N3CCC(Cc4ccccc4)CC3)ncnc2s1
 : 14	-1	-5	2.6%	1.3	30
O=C(CCS(=O)(=O)c1ccccc1)N(Cc1cccnc1)c1nc2c(Cl)cccc2s1
 : ·	·	·	0.4%	0.9	26
CSCC(=O)N1CCCC(CO)(Cc2ccccc2C)C1 (stereo unspecified)
 : -1.6	-11	4	1.7%	-0.6	-19
Cc1cccc(NC(=S)NC2CCN(Cc3ccccc3)CC2)c1C
 : -0.6	-2	-2	-2.3%	0.4	-27
Cc1csc2c(N(C)CCO)ncnc12
 : 0.8	0	-1	-1.6%	-0.4	-13
COCCn1c(SCC(=O)NC2CC2)nnc1-c1ccco1
 : 3.3	-1	0	-1.2%	0.6	39
COc1ccc(CN2CCNC(=O)C2CC(=O)N(C)Cc2ccno2)c(F)c1 (stereo unspecified)
 : -4.8	4	4	-1.6%	0.0	14
O=C(c1ccccc1Br)N(Cc1ccccc1)c1ccccc1
 : -4.4	6	5	0.2%	6.9	-5
CCOC(=O)C(NC(=O)c1cccc(Cl)c1)(Nc1sc2c(c1C(N)=O)CCC2)C(F)(F)F (stereo unspecified)
 : -2.3	-2	-3	2.1%	4.3	0
O=C(Nc1ccc(-c2csc(Nc3ccccc3)n2)cc1)c1cccc(C(F)(F)F)c1
 : 0.1	-8	0	8.3%	0.8	20
COc1cccc(C(=O)N2CCN(Cc3cccc(F)c3)CC2)c1
 : -2.0	4	1	-0.1%	-1.1	-6
CCOC(=O)c1cccc(NC(=O)CSc2nnc(CNc3ccc(C)cc3)n2CC)c1
 : -0.6	-7	-22	?	3.7	15
COc1ccc(N2CCN(CC(O)COc3ccc([N+](=O)[O-])cc3)CC2)cc1 (stereo unspecified)
 : -5.9	7	-3	-0.3%	2.5	14
C=CCOC(=O)C(C#N)c1nc2ccccc2nc1N1CCCC1 (stereo unspecified)
 : -4.4	-16	-1	2.8%	-0.3	4
O=C(O)c1ccc(/C=N/NC(=S)NCc2ccccc2)cc1
 : -0.1	-2	-12	0.2%	1.4	8
CCCCCCNC(=O)O[C@H]1C[C@H](C(=O)OC)[C@H](C(=O)OC)C2CN(S(=O)(=O)c3ccc(C)cc3)C[C@@]21O (stereo partly specified)
 : -2.5	-2	6	2.1%	-0.2	6
COc1ccc(-c2onc3ccc(Br)cc23)cc1
 : ?	12	16	8.2%	1.9	12
CCc1ccccc1-n1nnc(-c2nsc(NC(=O)c3ccc(C)c(C)c3)n2)c1C
 : ·	·	·	0.3%	9.9	-27
COc1ccc(Cc2c(O)nc(SCC(=O)N3CCCCCC3)[nH]c2=O)cc1
 : -2.6	3	-20	2.1%[38.3 µM]	0.7	-17
Cn1nc(C(=O)N2CCN(c3ccccc3)CC2)c2c1-c1ccccc1SC2
 : ·	·	·	2.2%	0.5	33
O=C(Nc1cccc2ccccc12)ON=C1CCCCC1
 : 3.4	-3	-5	1.3%	0.0	11
O=C(c1ccc(NS(=O)(=O)c2ccc3[nH]c(=O)[nH]c3c2)cc1)N1CCN(c2ccccc2)CC1
 : 1.0	-10	-12	0.1%	-0.1	1
COc1ccc(OC)c(NC(=O)C(NS(=O)(=O)c2ccc3c(c2)CCCC(=O)N3)C(C)C)c1 (stereo unspecified)
 : ·	·	·	0.2%	-0.9	9
Nc1cc(-c2ccc(Br)cc2)[nH]n1
 : -3.1	-6	-12	1.6%	0.7	-8
COc1ccc(C2CCCN2C(=O)c2cccs2)cc1 (stereo unspecified)
 : -5.2	8	2	-2.3%	2.5	-7
CC(Nc1ccc(-c2nc(-c3cccnc3)no2)cc1[N+](=O)[O-])c1ccccc1 (stereo unspecified)
 : ·	·	·	0.4%	-0.9	-25
CN(C)S(=O)(=O)c1ccc2c(c1)nc(CCC(=O)Nc1ccc3c(c1)OCO3)n2C
 : -3.1	-2	-2	5.0%	0.4	20
CCN(CC)C(=O)CN(c1ccc(C)cc1)S(=O)(=O)c1ccc(SC)cc1
 : -2.9	-1	4	-4.4%	-0.5	14
Cc1nc(N(C)C)c2sc(=S)n(C)c2n1
 : -3.3	-2	3	0.8%	0.7	70
COc1ccc(NS(=O)(=O)c2ccc(C(=O)N(C)Cc3ccc(C)o3)cc2)cc1
 : -1.8	-3	-11	-1.1%	5.7	-8

(listing goes on)
Second line of a record – D2 ag	Six1-Eya2 blk	CtBP-E1A blk	PINK1 expr mod	TRPML1 agonist	TRPML1 inh
O=C(NC1CCCc2ccccc21)C1CCN(S(=O)(=O)c2cccc(C(F)(F)F)c2)CC1 (stereo unspecified)
 : -1.4	-21	0	1.5%	1.8	0
CCOC(=O)/C(C#N)=C1/C=CN(c2ccc(C)cc2)C=N1
 : -1.0	-3	6	-1.7%[38.3 µM]	-0.4	36
CN(C(=O)COC(=O)C1CCN(S(=O)(=O)c2cccs2)CC1)c1ccccc1
 : -1.8	7	-5	0.8%	0.3	2
CC(C)NC(=O)CSc1nc(N)c(-c2ccccc2)c(=O)[nH]1
 : -1.6	0	-1	-0.1%	-0.3	4
COC(CNC(=O)CCc1c(C)nc2c(-c3ccc(F)cc3)c(C)nn2c1C)OC
 : -1.4	-15	-17	-0.2%	2.5	-15
COCCCNc1ccc([N+](=O)[O-])cc1C(=O)Nc1cccc(C)n1
 : -2.6	-28	5	-0.2%	0.7	0
COc1ccc(NC(=O)NNC(=O)C(C)Oc2ccc3ccccc3c2)cc1OC (stereo unspecified)
 : 5.5	-15	-2	1.1%	0.2	1
O=C(CSc1ncn[nH]1)c1ccc2c(c1)OCO2
 : 1.5	0	6	?	-0.1	-11

Grouped by structure, the entries above containing a furan ring, fused or not (three)
Second line of a record – D2 ag	Six1-Eya2 blk	CtBP-E1A blk	PINK1 expr mod	TRPML1 agonist	TRPML1 inh
Cc1cccc(NC(=O)c2ccc(Cn3nc(N4CCN(c5ccccc5)CC4)ccc3=O)o2)c1C
 : ·	·	·	0.3%	2.2	21
COCCn1c(SCC(=O)NC2CC2)nnc1-c1ccco1
 : 3.3	-1	0	-1.2%	0.6	39
COc1ccc(NS(=O)(=O)c2ccc(C(=O)N(C)Cc3ccc(C)o3)cc2)cc1
 : -1.8	-3	-11	-1.1%	5.7	-8
